# Beta cell apopt: beta cell apoptosis inhibition | 300,000 tested, 0.8% active | protection from apoptosis, % (no concentration beside the values) | INS-1E cytokine-induced death, ATP luminescence, 48 h; percent of positive-control rescue, neutral wells zero | AID 435005;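 active means all replicates at 75% or more, or half of them and the mean; inconclusive means half reach 75% but not the mean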;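 further: 0% = cytokine-treated negative control wells and 100% = positive control rescue; higher means more ATP so stronger rescue from cytokine killing; wells of about 40 µL received 100 nL stock; the first replicate is given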
# RanGTP-Impb inh: inhibitors of RanGTP-importin-beta interaction, primary screen, biochemical, FRET, CFP-Ran, YFP-importin-beta, homogeneous. 300,000 tested, 1.1% active. inhibition, % (no concentration beside the values). AID 2216. cell-free CFP-Ran/YFP-importin-beta FRET ratio;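 active means most replicates above 15%; inconclusive means exactly half above 15%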;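 further: 0% = DMSO wells and 100% = Ran loaded with GDP instead of GTP; wells of about 40 µL received 100 nL stock; the first replicate is given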
# rRNA inh HTS: selective bacterial rRNA inhibition in E. coli; GFP signal change (wild-type ribosome), % (no concentration beside the values); 350,000 tested, 1.6% active; E. coli WT GFP vs humanized-ribosome RFP mutants, fluorescence, 24 h; hits give low values; DMSO median 0, no signal -100;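 active means significant combined selectivity score with lowered wild-type GFP, culture density cut under 30%, mutant RFP and density less affected; inactive means any of these conditions unmet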; further: one replicate is shown; some compounds called inactive have numbers as strong as hits
# Bfl-1 A1 inh: inhibitors of the anti-apoptotic protein A1, read as caspase activation | MEF A1-2A-BIM cells, Caspase-Glo 3/7 luminescence, 3 h; percent of clofoctol response, vehicle zero | caspase activation, % (concentration not given with the values) | 330,000 tested, 0.066% active | AID 2462;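 active means over half of replicate activation scores above 10%, or exactly half above 10 with the replicate mean above 10; inconclusive means replicate mean below 10 yet half the replicates above 10; inactive means over half of replicates below 10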;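 further: wells of about 30 µL received 50 nL stock; many hits fall short of the cut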
# MLL AF4-AF9 inh: MLL-AF4/AF9 protein interaction inhibition. P42568. AID 651704. inhibition, % at 10 µM. 350,000 tested, 0.47% active. AlphaScreen, biotin-AF4 peptide binding to FLAG-AF9;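 active means every replicate reaching a set inhibition limit, whatever the replicate mean, cut at about 25% in these data; inconclusive means mean inhibition reaches that limit but some replicates miss it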;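 further: 0% = plate neutral control median and 100% = total signal loss; the record names both 10 and 1 µM as test concentration; the first replicate is given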
# Target sequence (P42568 whole entry, looked up): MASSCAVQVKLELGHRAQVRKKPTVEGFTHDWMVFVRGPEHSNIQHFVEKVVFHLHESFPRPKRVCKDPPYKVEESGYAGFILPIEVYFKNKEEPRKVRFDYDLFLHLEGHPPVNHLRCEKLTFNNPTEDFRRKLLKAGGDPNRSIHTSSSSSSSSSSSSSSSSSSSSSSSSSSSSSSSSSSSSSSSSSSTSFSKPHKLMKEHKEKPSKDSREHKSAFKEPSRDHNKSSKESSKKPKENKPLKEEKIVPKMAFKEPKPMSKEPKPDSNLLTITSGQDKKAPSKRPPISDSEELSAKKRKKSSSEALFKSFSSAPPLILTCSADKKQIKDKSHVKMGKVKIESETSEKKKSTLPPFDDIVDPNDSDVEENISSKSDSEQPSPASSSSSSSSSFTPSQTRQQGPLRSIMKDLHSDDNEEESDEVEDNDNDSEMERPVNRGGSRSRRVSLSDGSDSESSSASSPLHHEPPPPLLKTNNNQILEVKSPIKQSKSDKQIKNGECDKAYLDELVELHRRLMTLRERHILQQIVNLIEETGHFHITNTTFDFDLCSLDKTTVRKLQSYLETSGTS
# Calb FLC: affects C. albicans growth with fluconazole. 300,000 tested, 0.57% active. AID 1979. growth inhibition, % (test concentration not listed). C. albicans CaCi-2 (fluconazole-resistant clinical isolate) + fluconazole, Alamar Blue growth, 48 h;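 active means most replicates above 75%; inconclusive means exactly half above 75%; inactive means most below 75%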;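 further: all wells also contain fluconazole at 8 µg/ml as a sub-toxic cotreatment; 0% = median of DMSO wells and 100% = median of geldanamycin control wells; wells of about 8 µL received 7.5 nL stock; the first replicate is given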
# Vif TR-FRET: inhibitors of Vif binding to APOBEC3G peptide, primary screen, biochemical, TR-FRET, GST-Vif 1-94, biotin-A3G peptide, dose response retest (AID 1117319) | inhibition, %; hits with a dose series show IC50 in µM | TR-FRET GST-Vif / biotin-A3G peptide binding; higher % means a stronger effect; test concentration not given here; strong numbers were not always called active | 260,000 tested, 0.57% active;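 active means above the screen mean plus three standard deviations and confirmed in dose response; inconclusive means results disagree or hit not tested in dose response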;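 further: Vif residues 1-94 fused to GST binding biotinylated APOBEC3G peptide 110-148; 0% = full assay without inhibitor and 100% = GST in place of GST-Vif; retest series ran down from 100 µM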
# T cruzi repl: blocks replication of Trypanosoma cruzi; T. cruzi beta-gal in NIH3T3, luminescence, 90 h; inhibition, % (concentration not given with the values); 300,000 tested, 1.4% active;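 active means mean inhibition across valid replicates above about 55%, limit read from the data; inconclusive means mean below that limit but half or more replicates reach it; inactive means mean below it, under half of replicates reach it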;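 further: signal also drops with host cell toxicity which is not excluded here; 0% = plate median of DMSO wells and 100% = zero luminescence signal; higher percent means less beta-gal luminescence so fewer parasites; stock transfer was 50 nL into about 50 µL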
# rRNA inh HTS OD600: further read-out of rRNA inh HTS, marked with its call; OD600 change, %; measured here: OD600 growth;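 optical density of the mix in the first replicate; 0 = DMSO median and -100 = no signal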
# rRNA inh HTS RFP: further read-out of rRNA inh HTS, marked with its call; RFP signal change, %; measured here: RFP humanized mutant strains;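 first replicate; 0 = DMSO median and -100 = no signal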
# The depositor's hits bear a star; ? = inconclusive; . = not tested or not shown; & = joins results of further samples.
molecule	Beta cell apopt	RanGTP-Impb inh	rRNA inh HTS	rRNA inh HTS OD600	rRNA inh HTS RFP	Bfl-1 A1 inh	MLL AF4-AF9 inh	Calb FLC	Vif TR-FRET	T cruzi repl
COc1ccc(C)cc1NC(=O)CN1C(=O)CSc2ccc(S(=O)(=O)N3CCCC3)cc21	-1	2.4	-8	-5	1.0	0.9	4.7	-6	.	0
CCOC(=O)C(=O)Nc1ccc(F)cc1	1	4.7	.	.	.	0.8	.	3	-3%	-15
CCOC(=O)c1c(-c2ccccc2)nnn1-c1nc(OCC)nc(N2CCCCC2)n1	8	?	.	.	.	-0.6	.	5	-7%	20
COc1cc(/C(C)=N/N2CCN(c3ccccc3OC)CC2)ccc1O	-3	3.2	7	20	-6.7	-0.6	8.8	-5	.	-12
CCOC(=O)c1sc(NC(=O)c2ccoc2C)c(C(N)=O)c1C	.	3.4	10	0	2.0	1.6	-6.2	18	-2%	9
Cc1ccc(NC(=O)CC2C(=O)NCCN2C(=S)Nc2ccccc2)c(C)c1 (stereo unspecified)	-2	-0.8	.	.	.	0.8	.	1	.	-6
CN(CC(=O)Nc1ccc(N2CCOCC2)cc1)CC(=O)Nc1ccccc1C#N	-1	-0.5	.	.	.	1.1	.	-5	.	-9
O=C(N[C@@H](Cc1c[nH]c2ccccc12)C(=O)O)c1ccc(Cl)cc1	-6	3.4	6	4	1.6	-0.3	-6.9	3	0%	-16
Cc1ccc(C(=O)NNC(=O)c2ccccc2-n2cccc2)cc1	0	0.5	5	8	0.2	-0.7	2.1	-18	-10%	-9
O=C(c1ccccc1)c1ccc(COC(=O)c2cnccn2)cc1	-3	4.2	-9	-7	1.2	0.1	-3.3	0	-4%	-23
Cc1ccc(NC(=O)c2cc(N3C(=O)C4CC=CCC4C3=O)ccc2N2CCOCC2)cc1Cl (stereo unspecified)	-3	-2.4	.	.	.	-1.0	.	9	0%	.
COc1ccc2c(c1)[nH]c1c(=O)n(CCCN3CCOCC3)cnc12	-1	5.0	1	8	-3.9	-0.2	.	0	23%	0
C/C=C\C(=O)Nc1cccc(C2=NOC3(C2)C[C@@H](C(N)=O)N(C(=O)COc2ccc(Cl)cc2)C3)c1 (stereo partly specified)	-3	0.2	-6	-11	0.1	1.1	1.8	-9	.	-5
O=C(c1cc2ccccc2oc1=O)N1CCCC1	0	-3.7	.	.	.	0.2	.	-6	-1%	-8
COc1ccc(-c2nc(NCCCN(C)C)c3ccccc3n2)cc1	.	-0.3	2	11	1.0	-1.6	-12	18	.	11
COc1cccc2c1OCC(C(=O)Nc1nccs1)=C2	-1	2.8	-14	-13	-2.8	-0.4	-4.3	3	-3%	-34
CSc1ccc(CN2CCN(C(=O)CC(C)C)CC2)cc1	.	-0.7	-5	-8	-2.4	0.2	-7.4	-9	29%	-4
CC(=O)Oc1ccc(OC(C)=O)c2c1CC(C)=C(C)C2	-5	-3.3	5	-9	-4.5	0.1	1.1	-3	-3%	36
CCCCCOC(=O)CCN1C(=O)/C(=C2\SC(=S)N(CCC(=O)OCCCCC)C2=O)SC1=S	2	-0.3	4	12	2.3	0.0	-3.2	0	-1%	2
COc1ccccc1N1CCN(C(=O)c2ccc3c(=O)n(Cc4ccc5c(c4)OCO5)c(=O)[nH]c3c2)CC1	1	1.4	.	.	.	-2.5	.	-21	5%	20
O=C(O)c1ccc(S(=O)(=O)Nc2ccc(F)c(Cl)c2)cc1	-2	2.4	.	.	.	1.5	.	0	0%	-19
Cc1ccc(C)c(NC(=O)c2cc([N+](=O)[O-])cc([N+](=O)[O-])c2)c1	1	-1.2	11	16	2.7	-0.9	-3.4	6	.	52
Fc1cc(F)cc(NC(=S)Nc2ccccc2N2CCOCC2)c1	-4	-3.7	0	-4	0.0	-0.5	1.7	3	-5%	-14
CC1(C)[C@H]2CC=C(CN3CCC(N4CCC(C(=O)N5CCCC5)CC4)CC3)[C@@H]1C2	5	0.4	8	13	2.7	-0.8	4.1	-9	11%	-2
CC(OC(=O)c1cc2sccc2n1C)C(=O)NCCc1ccccc1 (stereo unspecified)	-2	-2.6	.	.	.	0.7	.	27	-6%	-5
CCOCCCNC(=O)CN1C(=O)c2ccccc2Sc2ncccc21	-9	-2.2	12	6	1.2	0.3	3.0	-4	-1%	7
CCOC(=O)c1sc2ncc([N+](=O)[O-])cc2c1N	45	6.9	-36*	-26*	-6.1*	0.4	0.4	-2	-1%	8
CCCCn1c(NCc2ccccc2O)nc2ccccc21	-8	1.9	6	-21	-9.3	0.2	2.8	21	-2%	17
CCOc1ccc(C(=O)CN2CCN(S(=O)(=O)c3ccc(F)cc3)CC2)cc1	-3	-3.4	.	.	.	-0.2	.	6	3%	1
CC(C)c1ccc(S(=O)(=O)N2CCN(C(=O)c3ccco3)CC2)cc1	-2	0.6	.	.	.	-0.3	0.4	2	3%	3
O=C(CSc1nncc2ccccc12)Nc1ccc(F)cc1	-16	-3.1	2	5	-1.5	0.1	-2.7	1	.	-2
COC(=O)CCC(=O)OC1(C)C(=O)C=C2C=C(C3CC3)N(C(CO)CO)C=C2C1=O (stereo unspecified)	-7	3.3	28	8	29	-0.9	-1.9	0	.	-12
CCOC(=O)c1oc2ccccc2c1NC(=O)CN1CCOCC1	2	1.3	9	6	2.2	0.1	0.7	-12	21%	-4
CC(C)(C)NC(=O)CSc1nc2ccccc2c(=O)[nH]1	-1	-0.9	5	1	-1.4	0.5	-4.2	8	15%	5
COc1ccc(CCNC2=NCCS2)cc1	2	-1.3	.	.	.	0.2	.	0	-3%	45
COc1ccccc1-c1sc2cc3c(cc2c1-c1ccc(OCCN2CCCCC2)cc1)OCO3	36	.	11	18	-1.3	1.1	16	.	.	.
COc1ccc(NC(=O)N2CCN(S(=O)(=O)c3ccc(F)cc3)CC2)c(OC)c1	-3	-0.3	2	6	0.7	0.1	-2.0	21	.	19
COc1ccc(OC)c(S(=O)(=O)N2CCc3ccccc3C2)c1	-6	1.8	-34	-35	-4.3	-0.1	?	10	.	3
C/C(=N/OC(=O)c1ccc(Cl)cc1Cl)c1oc(C)nc1C	-1	1.7	-6	-9	2.5	-1.6	-1.4	-6	-3%	24
O=C(CSc1ncn[nH]1)N(C1CCCCC1)C1CCCCC1	-34	-4.1	.	.	.	0.0	.	13	-1%	-9
O=C1C2C3C=CC(C4CC34)C2C(=O)N1c1ccc2c(c1)OCO2 (stereo unspecified)	-5	?	12	12	1.6	0.9	-0.3	-4	1%	10
COc1ccccc1NC(=O)c1sc(Cl)nc1C	3	-1.9	10	7	-1.4	-0.7	-4.4	-4	0%	6
CCc1ccc(-c2cc(C)no2)cc1S(=O)(=O)N1CCN(c2ccccc2F)CC1	11	-3.3	0	-7	-1.3	-0.8	-1.3	-9	.	24
O=C(C1Cc2ccccc2CN1C(=O)c1ccccc1)N1CCN(c2ccccc2)CC1 (stereo unspecified)	5	2.1	-22*	-5.9*	-3.1*	-0.1	.	12	8%	1
CC1C(=O)N2CCCc3cc(NC(=O)CC(C)(C)C)cc1c32 (stereo unspecified)	-2	4.9	2	3	-0.3	0.2	-1.2	13	-5%	-16
c1cc2c(cc1CNc1ccc(N3CCOCC3)cc1)OCO2	-4	.	-2	15	3.5	-7.3	16	.	.	.
CCn1c(SCc2ccc(C(=O)Nc3nccs3)cc2)nnc1-c1ccc(NC(C)=O)cc1	-9	-0.5	.	.	.	-0.3	.	3	5%	4
Cc1nc2ccc(C(=O)N3CCN(c4ccccc4)CC3)cc2s1	-2	2.5	.	.	.	-0.1	.	20	3%	5
CC(C)N1CC=C2C(C#N)=C(N)C(C#N)(C#N)[C@H](c3ccoc3)[C@H]2C1	-1	55*	.	.	.	0.2	.	10	?	24
CCCn1nnnc1-c1cccc(Cl)c1	-2	4.0	.	.	.	2.2	.	-29	71%	-13

# Next part:
molecule	Beta cell apopt	RanGTP-Impb inh	rRNA inh HTS	rRNA inh HTS OD600	rRNA inh HTS RFP	Bfl-1 A1 inh	MLL AF4-AF9 inh	Calb FLC	Vif TR-FRET	T cruzi repl
CCOC(=O)c1ccccc1NC(=O)COC(=O)C1CC(=O)N(CCc2ccccc2)C1 (stereo unspecified)	0	-2.3	6	-4	-0.1	?	-0.7	3	-2%	-4
CC(C)CC1NC(=O)c2cc(Cl)ccc2-n2c1nc1ccccc1c2=O (stereo unspecified)	-4	.	1	3	-2.9	1.7	-24	.	.	.
Cc1ccc(O)c(-c2cc(C(=O)Nc3ccc(S(=O)(=O)Nc4nccc(C)n4)cc3)[nH]n2)c1	2	0.6	-29*	-13*	-4.3*	0.0	-0.2	-1	19%	-15
CC1CCCC(NC(=O)C2CCN(S(=O)(=O)N3CCCCCC3)CC2)C1C (stereo unspecified)	3	1.9	.	.	.	0.3	.	-23	-1%	-3
COc1ccc(CCN=C(N)Nc2nc(C)cc(C)n2)cc1	-4	0.7	-2	-11	-3.4	0.7	2.3	-7	-6%	13
Nc1cc(-c2ccc(Cl)cc2)nn1S(=O)(=O)c1ccccc1	9	1.6	-10	-16	-1.3	0.0	1.8	8	7%	-5
CC(=O)c1cccc(NC(=O)CN(c2ccccc2)S(C)(=O)=O)c1	-1	?	.	.	.	0.4	.	18	18%	-7
Cc1nn(-c2ccccc2)c2[nH]c(=O)cc(C(F)(F)F)c12	3	-4.6	-25	-52	-17	0.0	-2.5	-1	.	-3
Cc1ccc(OC(=O)C2c3ccccc3Oc3ccccc32)cc1C	7	-1.5	4	9	-0.9	1.7	-5.2	-2	-4%	-17
O=C(NCc1ccccc1)C1=C[C@@H](c2ccc(Br)cc2)C[C@@H](OCCCCO)O1	0	-3.0	7	6	7.8	0.9	1.5&-1.3	-3	-7%	4
O=C(Cn1c(=O)c2cccn2c2ccccc21)Nc1ccc(F)cc1F	-1	-1.6	-2	-9	-4.0	-0.3	-1.2	-26	0%	18
O=C(NCC(=O)N1CCCCC1)c1ccc(Br)o1	-1	4.3	-1	7	-2.7	-2.0	-1.1	-1	.	-20
O=C(CSC1=Nc2ccccc2C2CC=NN12)Nc1ccc(F)cc1Cl (stereo unspecified)	-5	3.0	9	22	-0.5	0.7	-2.1	-6	-13%	-7
Cc1cccc(NC(=S)NCc2cccn2C)c1	-1	-1.2	.	.	.	0.5	.	11	4%	5
O=C(CSc1nnnn1-c1ccc(O)cc1)Nc1ccc(N2CCOCC2)c(Cl)c1	8	?	.	.	.	0.2	.	-23	0%	8

# Assay outcomes from PubChem.

# An excerpt, so the mix of outcomes need not match the whole.
